VDR inh – blocks the human vitamin D receptor; VDR-SRC2-3 peptide fluorescence polarization, 2 h; Potency, µM, for the others: max response, negative = inhibition, hits mostly inhibitors; 0.93% of 400,000 active; active = well fitted inhibition curve with a large enough effect; inconclusive = small, poorly fitted or top-dose-only effect, or another doubt; inactive = no such curve, though single readings can be large or run the other way; note: series mostly up to about 120 µM
Target sequence (P11473 whole entry, looked up): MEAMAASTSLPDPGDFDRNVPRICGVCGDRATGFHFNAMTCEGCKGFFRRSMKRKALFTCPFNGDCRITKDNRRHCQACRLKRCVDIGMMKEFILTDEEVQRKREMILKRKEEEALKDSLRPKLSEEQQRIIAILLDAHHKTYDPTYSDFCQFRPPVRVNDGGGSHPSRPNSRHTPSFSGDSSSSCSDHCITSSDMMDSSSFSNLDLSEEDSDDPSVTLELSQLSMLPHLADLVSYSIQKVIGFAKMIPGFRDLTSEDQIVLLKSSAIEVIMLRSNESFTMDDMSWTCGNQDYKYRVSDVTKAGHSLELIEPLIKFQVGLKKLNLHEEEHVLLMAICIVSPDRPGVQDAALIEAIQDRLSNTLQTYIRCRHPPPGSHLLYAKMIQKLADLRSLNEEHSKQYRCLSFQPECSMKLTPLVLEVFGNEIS
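Two reagent solutions held at 4 deg C in the dark were dispensed, compounds pinned at 23 nl, and the mixture incubated 2 h at room temperature. Read-out: fluorescence polarization of VDR–SRC2-3 peptide binding.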
* hit, by the source's call; ? = inconclusive; & = joins results of further samples; [ ] = remark or other dose. % is set by controls: 0 for no effect and ±100 for the full control effect; potency is the fitted concentration of half-maximal effect. The list is partial, so the mix of outcomes need not match the whole.

SMILES	VDR inh
Cc1ccccc1-c1noc(CCC(=O)NCc2ccco2)n1	-19%
CSc1ccc(Cl)c(C(=O)NCc2ccco2)c1	-8%
O=[N+]([O-])c1ccc(S(=O)(=O)NN=Cc2ccc(Cl)c(Cl)c2)cc1	50µM*
COc1ccc(NC(=O)C2CCN(c3nc(-c4ccc(OC)c(OC)c4)no3)CC2)cc1Cl	-2%
CN(C)CCN(C)Cc1c2ccccc2c(CN(C)CCN(C)C)c2ccccc12	-11%
Cc1ccc(NC(=O)Cc2noc3ccccc23)nc1	-17%
Cc1cc(Nc2ccc3c(c2)OCCO3)c2cccc(C)c2n1	-14%
COc1ccc(N2CC(NS(=O)(=O)c3cccs3)CC2=O)cc1 (stereo not given)	0%
CCC(C)(C)NC(=O)C(c1cccc(OC)c1OC)N(Cc1ccccc1)C(=O)CCC(=O)Nc1cc(C)on1 (stereo not given)	-21%
Clc1ccc(C=NC23CN4CN(CN(C4)C2)C3)cc1	-11%
Cc1c(Cl)cccc1NC(=O)c1ccc2nc(C(C)C)oc2c1	19%
CCC(=O)n1nc(-c2cccnc2)nc1NCc1ccc(OC)cc1	7%

Laid out differently: entries from further up.
Molecule: CCC(C)(C)NC(=O)C(c1cccc(OC)c1OC)N(Cc1ccccc1)C(=O)CCC(=O)Nc1cc(C)on1 (stereo not given)
  VDR inh = -21%

Molecule: COc1ccc(NC(=O)C2CCN(c3nc(-c4ccc(OC)c(OC)c4)no3)CC2)cc1Cl
  VDR inh = -2%

Molecule: CN(C)CCN(C)Cc1c2ccccc2c(CN(C)CCN(C)C)c2ccccc12
  VDR inh = -11%

(list continues)
SMILES	VDR inh
Cc1cccc(N2C(=O)C(Oc3ccc(Cl)cc3Cl)C2C(=O)O)c1C (stereo not given)	2%
Cc1ccccc1Cn1cc(NC(=O)c2nn(C)cc2Cl)cn1	-6%
CCN(CC(=O)NCc1ccc(Cl)cc1)C(=O)CSc1cccc(C(F)(F)F)c1	3%
Cc1oc2ncn(C)c(=O)c2c1C(=O)NCCCN(Cc1ccccc1)C(C)C	19%
O=C(COC(=O)c1cccs1)NCc1ccco1	-2%
Cc1nc2ccccc2n1/N=C/c1ccc([N+](=O)[O-])s1	-1%
COC(=O)C1CN(S(=O)(=O)c2cc(OC)ccc2OC)CCS1 (stereo not given)	0%
Cc1ccccc1C(=O)Nc1nnc(-c2ccc(C(C)(C)C)cc2)s1	-5%
N#Cc1nc(Cc2cccc3ccccc23)oc1NCCN1CCCCC1	2%
COc1ccc(NC(=O)N(C)C[C@H]2Oc3c(NC(=O)NC(C)C)cccc3C(=O)N([C@H](C)CO)C[C@@H]2C)cc1	7%
CC1CC(c2ccccc2)n2nc(NC(=O)c3cccs3)nc2N1 (stereo not given)	13%
O=C(CSc1nccc2ccccc12)N1CCN(c2ccccn2)CC1	-24%
CC(=O)Oc1ccc(N2C(=O)C3C4C=CC(C5CC45)C3C2=O)cc1[N+](=O)[O-] (stereo not given)	?
COc1cccc(C2CC(=O)Nc3cc(OC)c(OC)c(OC)c32)c1OC (stereo not given)	9%
CCOC(=O)c1nnn(-c2nonc2-n2cccc2)c1C	3%
CC(NC(=O)c1ccccc1N)c1ccccc1 (stereo not given)	-15%
O=C(NCc1ccccc1)/C(=C/c1ccc([N+](=O)[O-])cc1)NC(=O)c1ccco1	-4%
COc1cccc(-n2c([S-])c(C(=O)Nc3ccc(S(=O)(=O)N4CCOCC4)cc3)[n+]3cc(C(N)=O)ccc23)c1	24%
COc1ccc(-c2[nH]ncc2/C=N\NC(=O)c2cccs2)cc1OC	-9%
CSC1=NC2(CCN(C(=O)NC3CCCCC3)CC2)N=C1c1ccc(C)cc1	-1%
CCN(Cc1ccccc1)C(=O)c1nn(-c2ccc(OC)cc2)c(=O)c2c1c1ccccc1n2C	1%&-5%
CCN(Cc1ccccc1)S(=O)(=O)c1c(N)n(C)c(=O)n(C)c1=O	-2%
CCOc1cc(NC(=S)NCCCN2CCOCC2)c(OCC)cc1NC(=O)c1ccccc1	9%
O=C(COc1ccc(Cl)cc1)NCCS(=O)(=O)N1CCN(c2ccccc2F)CC1	23%
CCOc1ccc(NC(=O)C2CCCN(S(=O)(=O)c3ccc4c(c3)CCCN4C(C)=O)C2)cc1 (stereo not given)	-1%
Cc1cc(C)nc(NS(=O)(=O)c2ccc(NC(=O)c3cc(=O)c4ccc(C)c(C)c4o3)cc2)n1	20%
CN(C)c1cc(Nc2cccc(O)c2)c([N+](=O)[O-])c2nonc12	6%
COc1ccc(-c2cc(C(=O)NCCN3CCOCC3)no2)cc1OC	-1%
Cc1nn(-c2cc(N(S(C)(=O)=O)S(C)(=O)=O)c(Cl)cc2Cl)c(=O)n1C	-17%
CCc1ccccc1NC(=O)CN(C1CCCCC1)S(C)(=O)=O	-2%
CC1=C(C(=O)Nc2ccc(CC(=O)NCc3ccc(OC(C)C)cc3)cc2)SCCO1	-14%
O=C(Cc1c(F)cccc1Cl)Nc1cc(S(=O)(=O)N2CCOCC2)ccc1N1CCOCC1	-5%
O=C(NCc1ccccc1Cl)C1CCCN(c2ncnc3c2nc2n3CCCCC2)C1 (stereo not given)	-7%
Cc1cc(C)n(/C(=C\N(C)C)C(=O)c2ccc(Cl)cc2)n1	17%
CCOc1ccc(CCNC(=O)c2nnc(Cc3cc(OC)c(OC)c(OC)c3)o2)cc1OCC	0%
COc1cc(N2C(=O)CSC23C(=O)N(Cc2ccc(C)cc2)c2ccccc23)cc(OC)c1OC (stereo not given)	3%
CCOC(=O)c1c(CNCCN(CC)CC)n(C)c2cc(Br)c(OC)cc12	-15%
CC(/C=N/NC(=O)c1cc(-c2cccnc2)nc2c1c(C)nn2-c1ccccc1)=C\c1ccccc1	-1%
S=C1SCN(Cc2cccnc2)CN1Cc1cccnc1	-10%
O=C(c1ccc2c(=O)n(Cc3ccc4c(c3)OCO4)c(=S)[nH]c2c1)N1CCCCC1	10%
CCc1nc(SCC(=O)N2CC(=O)Nc3ccccc32)c2c(C)c(C)sc2n1	-7%
O=C(N/C=C\c1ccccc1)NCc1ccc(Cl)cc1	-12%
COCCn1c(SCC(=O)Nc2cc(C)cc(C)c2)nnc1C(C)C	17%
CC(C)c1ccc(NC(=O)CN2C(=O)COc3ccc(S(=O)(=O)N4CCCCCC4)cc32)cc1	9%
O=C(c1ccc(S(=O)(=O)Cc2cc(F)ccc2F)c([N+](=O)[O-])c1)N1CCCCC1	?
CCOc1ccc(C(=O)NCC(=O)N2CCN(Cc3ccccc3)CC2)cc1	1%
CCOC(=O)c1cnc2c(-c3ccccc3)c(-c3ccccc3)nn2c1C	10%
Cc1noc(NS(=O)(=O)c2ccc(NC(=O)CSc3nc4c(cc3C#N)CCC4)cc2)c1C	2%
Fc1ccccc1NC(=S)N1CCN(Cc2ccccc2)CC1	2%
COc1ccc(NC(=O)CSc2nc3nc(C)cc(C)c3c(=O)[nH]2)cc1	4%
O=C(CO/N=C/c1ccc(OC(F)F)cc1)NC1CCCCC1	-30%
Cc1ccc(CS(=O)(=O)c2ccc(C(=O)N3CCCCC3)cc2[N+](=O)[O-])cc1	-11%
COc1ccc(CN2C(=O)C(CC(C)C)Nc3ncnc(N4CCCCC4)c32)cc1 (stereo not given)	-20%
O=C(CCC(=O)N(CC(=O)NC1CCCCC1)Cc1ccco1)Nc1nccs1	15%
CCNC(=O)COc1ccc(Br)cc1Cl	-1%
COc1ccc(NC(=O)CSc2nc3nc(C)cc(C)n3n2)cc1OC	4%
O=C(COc1ccccc1Br)NCCC1=CCCCC1	4%
COc1ccc(NC(=S)Nc2cccc3cnccc23)cc1	-16%
CC(=O)Nc1ccc(S(=O)(=O)Nc2nc3ccccc3nc2Nc2ccc(O)cc2)cc1	-14%
Cc1ccc(NC(=O)CC2CCCC2)c(Br)c1	-7%

Three of the entries above in order of the VDR inh value, smallest number first:
SMILES | VDR inh
Cc1cc(Nc2ccc3c(c2)OCCO3)c2cccc(C)c2n1 | -14%
O=C(COC(=O)c1cccs1)NCc1ccco1 | -2%
O=C(COc1ccccc1Br)NCCC1=CCCCC1 | 4%

The list continues:
SMILES	VDR inh
Cc1ccc(-n2c(=S)sc3c(=O)n(-c4ccccc4C)c(SCC(=O)O)nc32)cc1C	-4%
COc1ccc(CN2C(=O)CSC2c2ccncc2)cc1 (stereo not given)	-5%
CC(=O)c1ccc(NC(=S)Nc2cccc(S(=O)(=O)Nc3c(C)n(C)n(-c4ccccc4)c3=O)c2)cc1	-1%
COc1ccc(NC(=O)c2cc(-c3ccccc3)nc3c2cnn3C(C)C)cc1	-37%
CC(Oc1ccccc1Cl)C(=O)Nc1ccc(S(=O)(=O)N2CCOCC2)cc1 (stereo not given)	-16%
CCOc1ccc(S(=O)(=O)NCc2ccccn2)cc1	-1%
CC(=O)N1CCc2cc(S(=O)(=O)CCC(=O)N3CCC(C)CC3)ccc21	-5%
O=C(NC(=S)Nc1nc(-c2ccc(Br)cc2)cs1)c1cccnc1	10%
CCNC(=O)N(CC)C[C@H]1N[C@@](CC)(C(=O)OC)[C@H]2C(=O)N(Cc3ccccc3)C(=O)[C@@H]12	-7%
COc1ccc(CSc2nnc(SCc3ccc([N+](=O)[O-])cc3)s2)cc1	-4%
CCCCN(C(=O)NC(=O)Nc1ccccc1OC)S(C)(=O)=O	-2%
Cc1ccccc1NC(=O)c1ccc(COc2ccc3c(C)cc(=O)oc3c2)cc1	-14%

Three entries from above, comma-delimited.
mol,VDR inh
CCOc1ccc(CCNC(=O)c2nnc(Cc3cc(OC)c(OC)c(OC)c3)o2)cc1OCC,0%
COc1cc(N2C(=O)CSC23C(=O)N(Cc2ccc(C)cc2)c2ccccc23)cc(OC)c1OC (stereo not given),3%
CCOC(=O)c1c(CNCCN(CC)CC)n(C)c2cc(Br)c(OC)cc12,-15%

More records:
SMILES	VDR inh
C/C(=N\NC(=O)Cc1c(C)[nH][nH]c1=O)c1ccc(Cl)c(Cl)c1	13%
CCN1CCN(C(=O)CN2C(=O)c3cccc4cccc2c34)CC1	17%
COc1ccc(N2CCN(C(=O)CNC(=O)Cn3cnc4sc(C)c(C)c4c3=O)CC2)cc1	-17%
CCOC(=O)c1ccc(NC(=O)CN(c2ccc(C)cc2)S(=O)(=O)c2c(C)n[nH]c2C)cc1	2%
COCCN1C(=O)C(=O)/C(=C(/O)c2ccc(S(=O)(=O)N3CCOCC3)cc2)C1c1cccc(O)c1 (stereo not given)	2%
Cc1ccc(NS(=O)(=O)c2ccc(Cl)s2)cc1S(=O)(=O)N(C)C	-11%
CC/C(C)=C1\SC(N2CCOCC2)=NC1=O	-4%
O=C(COc1ccc([N+](=O)[O-])cc1Cl)NCCN1C(=O)CSC1=O	-22%
COc1ccccc1Nc1nc(N)nc(CN(C)C2CCCCC2)n1	8%
CCn1ccnc1CN(C)Cc1nc(-c2ccc3c(c2)OCO3)no1	1%
CC(NC(=S)NCCCN1CCOCC1)C12CC3CC(CC(C3)C1)C2 (stereo not given)	-4%
O=C(Nc1cccn(Cc2c(Cl)cccc2Cl)c1=O)c1ccc(Cl)cc1	-1%
COc1ccc2c(C)cc(SCC(=O)Nc3ncc(Cl)cc3Cl)nc2c1	-9%
CC(C)NC(=O)c1onc(CSc2ccccc2)c1C(=O)O	11%
CCOC(=O)C1=C(COC(=O)c2cc(S(=O)(=O)N3CCOCC3)ccc2F)NC(=O)NC1C (stereo not given)	-12%
O=C(c1ccco1)N1CCN(C(=O)c2cccn3c(=O)c4c5c(sc4nc23)CCCC5)CC1	-27%
CCOC(=O)c1ccc(N=NN(C)C)cc1	3%
Cc1ccc(N/C(N)=N/c2nc(CSc3nnc(N)s3)cc(=O)[nH]2)cc1	4%
CCOC(=O)c1c(NC(=O)COC(=O)c2cc(OC)c(OC)cc2[N+](=O)[O-])sc(C)c1CC	-4%
COc1ccc(OC)c(/C=N/NC(=O)c2cc[n+](CC(=O)c3ccccc3)cc2)c1	9%
COc1ccc(-n2cc(CNCCc3ncc(C)[nH]3)c(-c3ccccc3Cl)n2)cc1	14%
CCCn1c(SCC(=O)NC2CCCCC2)nnc1-c1cccnc1	5%
O=c1c2ccccc2nc2n1C(CSc1ccc(F)cc1)CN2 (stereo not given)	-2%
C=CCOC(=O)C1=C(C)NC(=S)NC1c1cccs1 (stereo not given)	-9%
Nc1ccccc1C#Cc1cnccn1	-9%
CCN(CC(=O)Nc1c(F)cccc1F)C(=O)C1=COCCO1	-20%
N#Cc1c(N)n(-c2ccccc2N)c2nc3ccccc3nc12	-4%
CN(C(=O)CSc1nnc(-c2ccc([N+](=O)[O-])cc2)o1)c1ccccc1	2%
CN(C(=O)COC(=O)C1CCN(S(=O)(=O)c2c(Cl)cccc2Cl)CC1)c1ccccc1	5%
Cc1ccccc1C(=O)N1CCC(C(=O)N2CCN(c3ncccn3)CC2)CC1	6%
COc1ccc(/C=C/C(=O)OCC(=O)N2CC(=O)Nc3ccccc32)cc1	-10%
CC1(C)CC(=O)C2(CC3=C(CC(C)(C)CC3=O)O2)C(=O)C1	3%
COc1ccc(Cl)cc1NC(=O)NCC1CCN(Cc2cc(C)ccc2C)CC1	-3%
O=C(OCc1nnc(-c2ccc(Cl)cc2)o1)c1ccc(O)cc1	-3%
COc1cccc(Oc2cc(Cl)nc(N)n2)c1	3%
COc1cc(/C=C/C(=O)Nc2ccc(N3CCCCC3)c(S(=O)(=O)Nc3ccccc3Cl)c2)cc(OC)c1OC	0%
COC(CNC(=O)CC1C(=O)N(Cc2ccccc2)C(C)c2nc3ccccc3n21)OC (stereo not given)	37%[activator]
Clc1cccc(Nc2nc(-c3cccnc3)cs2)c1	-6%
COc1cccc(OCC(O)CO)c1 (stereo not given)	2%
O=C(Nc1ccccc1C(=O)N1CCCCCC1)c1ccccc1	3%
CCCCn1c(N)c(N(CCOC)C(=O)COC(=O)COc2cc(C)c(Cl)cc2C(C)C)c(=O)[nH]c1=O	-9%
C/C(=N\Nc1nc2ccccc2s1)c1ccc2c(c1)OCO2	1%
